rRNA inh HTS = selective bacterial rRNA inhibition in E. coli | E. coli WT GFP vs humanized-ribosome RFP mutants, fluorescence, 24 h; hits give low values; DMSO median 0, no signal -100 | GFP signal change (wild-type ribosome), % (test concentration not listed) | 350,000 compounds, 1.6% hits;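 active = significant combined selectivity score with lowered wild-type GFP, culture density cut under 30%, mutant RFP and density less affected; inactive = any of these conditions unmet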; also: one replicate is shown; some compounds called inactive have numbers as strong as hits
UCH37 DUB inh = inhibitors of human deubiquitinating enzyme UCH37; Q9Y5K5; purified proteasome/UCH37, Ub-AMC cleavage fluorescence; inhibition, % (test concentration not listed); 330,000 compounds, 0.33% hits; AID 588478;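 active = mean of two replicates above 20%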;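 also: 0% = compound-free wells with enzyme and 100% = wells lacking proteasome; stock transfer was 100 nL into about 20 µL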
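Test system – human UCH37 enzyme supplied as purified proteasome complex · Incubation – 30 min preincubation with enzyme, 25 min cleavage at room temperature · Detection – AMC fluorescence from Ub-AMC cleavage, excitation 355 nm, emission 460 nm · Benchmarks – no-proteasome wells (full inhibition) and compound-free wells (no inhibition)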
E coli growth = inhibitors of Escherichia coli growth | 330,000 compounds, 0.21% hits | OD600 absorbance (test concentration not listed) | AID 1053175 | OD600, 23 h; hits give low values;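 active = OD600 absorbance below the run mean of sample wells minus 3.6 SD, in any replicate, cut at about 0.56 in these data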;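 also: stock transfer was 300 nL into about 60 µL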
ALR inh = human ALR oxidase inhibition via reduced H2O2 | P55789 | purified ALR, DTT oxidation, H2O2 HRP-luminol luminescence | inhibition, % (no concentration beside the values) | 290,000 compounds, 3.8% hits | AID 485317;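 active = mean and each replicate at 75% or more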;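 also: stock transfer was 7.5 nL into about 7.5 µL; 0% = neutral wells and 100% = wells with inactivated enzyme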
Beta2AR agonist = human beta-2 adrenergic receptor agonism by FAP | P07550 | Am2.2-beta2AR cells, FAP receptor internalization, flow cytometry; reference of the scale not given here | response, % (test concentration not listed) | 340,000 compounds, 0.43% hits;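 active = response above a set limit, near 3 SD of response in nonfluorescent compounds, cut at about 42% in these data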;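 also: stock transfer was 100 nL into about 11 µL; a reference agonist was the positive control; negative values mostly stem from fluorescent compounds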
Target sequence (P07550 whole entry, looked up): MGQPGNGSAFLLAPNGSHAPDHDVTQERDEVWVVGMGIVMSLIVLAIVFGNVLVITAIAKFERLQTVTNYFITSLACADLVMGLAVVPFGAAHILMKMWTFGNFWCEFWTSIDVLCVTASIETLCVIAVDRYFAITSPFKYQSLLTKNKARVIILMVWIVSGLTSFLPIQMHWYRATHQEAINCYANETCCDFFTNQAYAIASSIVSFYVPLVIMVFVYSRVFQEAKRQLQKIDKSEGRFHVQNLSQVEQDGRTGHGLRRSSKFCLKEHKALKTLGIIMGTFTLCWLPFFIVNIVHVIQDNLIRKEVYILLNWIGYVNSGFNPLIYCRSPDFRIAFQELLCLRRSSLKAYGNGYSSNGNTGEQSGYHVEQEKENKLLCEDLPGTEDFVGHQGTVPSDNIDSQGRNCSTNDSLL
HNF4A DNA FP = change in binding of human HNF4 alpha to DNA | P41235 | HNF4a-FITC DNA binding, fluorescence polarization, 1 h | activity change, % at 10 µM | 360,000 compounds, 0.3% hits; in the data active = activity change above about 30%, passing the limit was not always enough;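 also: controls were the assay level and a saturating level of protein; the project sought stronger binding though the title names inhibitors; some compounds called inactive have numbers as strong as hits; positive values seem to mean higher polarization but the record does not say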
Target sequence (P41235 whole entry, looked up): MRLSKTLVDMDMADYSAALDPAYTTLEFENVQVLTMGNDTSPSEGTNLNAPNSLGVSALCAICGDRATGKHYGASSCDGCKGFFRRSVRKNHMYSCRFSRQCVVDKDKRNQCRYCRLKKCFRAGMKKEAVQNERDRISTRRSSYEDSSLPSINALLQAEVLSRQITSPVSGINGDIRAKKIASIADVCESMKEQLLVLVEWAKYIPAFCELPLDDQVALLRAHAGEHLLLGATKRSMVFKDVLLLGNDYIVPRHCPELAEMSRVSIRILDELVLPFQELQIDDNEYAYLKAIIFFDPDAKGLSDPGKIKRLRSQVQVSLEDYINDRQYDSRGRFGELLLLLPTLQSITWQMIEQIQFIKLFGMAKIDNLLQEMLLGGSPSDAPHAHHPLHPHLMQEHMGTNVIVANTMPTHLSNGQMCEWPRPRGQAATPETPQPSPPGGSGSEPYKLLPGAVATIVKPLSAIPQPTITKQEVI
FGF22 binding = binders of recombinant human FGF22 by thermal shift; Q9HCT0; SYPRO orange fluorescence; percent of sucrose octasulfate shift, DMSO zero; calls only at 9.99 µM; 340,000 compounds, 1.5% hits;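 active = melting point raised past a set limit in the mean and every replicate; three in four hits are not shown here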
rRNA inh HTS OD600 = recorded beside rRNA inh HTS, whose call it bears; OD600 change, %; measured here: OD600 growth;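 optical density of the mix in the first replicate; 0 = DMSO median and -100 = no signal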
rRNA inh HTS RFP = further read-out of rRNA inh HTS, marked with its call; RFP signal change, %; measured here: RFP humanized mutant strains;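 first replicate; 0 = DMSO median and -100 = no signal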
* hit, by the source's call; i = inactive; x = no result given. The list is partial; count on the stated rates, not on these rows.

SMILES	rRNA inh HTS	rRNA inh HTS OD600	rRNA inh HTS RFP	UCH37 DUB inh	E coli growth	ALR inh	Beta2AR agonist	HNF4A DNA FP	FGF22 binding
N[C@H](CSCc1ccccc1)C(=O)Nc1ccc([N+](=O)[O-])cc1	-10	-2	2.0	6.6	0.63	x	16	2.3	i
CNc1cccc(-c2cccc(O)c2)n1	9	9	-2.5	x	x	x	x	2.5	i
Cc1ccc(OCC(=O)NC2CCS(=O)(=O)C2)c(C)c1 (stereo not drawn)	16	12	1.4	2.6	0.7	-8	-3	2.5	i
CCN(CC)C(=S)NC(=O)c1cccnc1	20	11	2.0	3.4	0.69	4	5	3.2	i
COc1ccc(C)c(-n2c(N)cc(=O)n(Cc3ccccc3)c2=O)c1	9	10	7.4	1.5	0.61	-1	1	2.5	i
O=C(NNC(=O)c1ccccc1F)c1ccc(-c2ccc(Cl)cc2)o1	-30	-53	16	-10	0.61	2	6	0.4	i
COc1cccc(C(O)c2nc(-c3cccc(C#N)c3)cs2)c1 (stereo not drawn)	-6	-22	-0.4	x	x	x	x	4.1	i
COC(=O)c1ccccc1S(=O)(=O)N1CCC(C(=O)OC(C)C(=O)Nc2ccccc2OC)CC1 (stereo not drawn)	-4	-5	0.4	2.6	0.74	-4	3	-0.8	i
COc1ccc(O)cc1CN1CCN(c2ncc(Cc3ccccc3)cn2)CC1	-3	-7	4.4	x	x	x	x	2.7	i
C[C@@H](C(=O)Nc1nc(-c2ccccn2)cs1)N1C(=O)C2CCCCC2C1=O (stereo partly drawn)	x	x	x	-0.3	0.79	5	-3	-4.5	x
CCCn1c(N)c(N(CCOC)C(=O)c2cccc(C(F)(F)F)c2)c(=O)[nH]c1=O	9	13	-0.7	1.7	0.66	2	6	3.9	i
O=C1CCCN1CCC(=O)N1CCCC(Nc2ccc(F)cc2)C1 (stereo not drawn)	2	10	2.2	2.7	0.69	46	5	-2.2	i
CC1=NN(c2ccccc2C(=O)O)C(=O)C1N=Nc1ccccc1 (stereo not drawn)	-51	-76	-13	11	0.63	x	12	-2.5	i
Cc1nnsc1C(=O)N/N=C/c1ccccc1Cl	5	7	0.8	x	x	-1	-1	-1.4	i
COCCN1C(=O)/C(=C2/C(=O)N(CC(=O)Nc3ccccc3Cl)c3ccccc32)SC1=S	10	12	3.6	7.0	0.69	-2	-5	5.0	i
CCc1nc2c(OCc3ccc(C#N)cc3)cccn2c1N(C)C(=O)C(C)C	9	24	1.0	x	x	x	x	-1.9	i
O=C(c1ccc(F)cc1)C1CCN(C(=O)c2ccc(Cl)cc2)CC1	-27	-33	-6.1	2.9	0.68	x	-3	-1.1	i
COc1ccc(C(C(=O)NC(C)(C)C)N(Cc2cccs2)C(=O)CCC(=O)Nc2cc(C)on2)cc1 (stereo not drawn)	x	x	x	2.1	0.71	3	29	0.5	x
CCOC(=O)NC(CC(=O)O)c1ccc(OC)cc1 (stereo not drawn)	x	x	x	-0.1	0.68	5	-6	0.9	x
CCOC(=O)[C@H](CCc1ccccc1)N[C@@H](C)C(=O)N1C(C(=O)O)C[C@@H]2CCC[C@@H]21 (stereo partly drawn)	6	8	2.4	0.2	x	-1	1	2.9	i
CC1(C(=O)NCc2cccc(Cl)c2)Cc2c(-c3ccccc3)ccnc2O1 (stereo not drawn)	1	-48	4.9	x	x	x	x	6.3	i
CCCCc1nc2cc(C(=O)N3CCNC(=O)C3)ccc2o1	3	7	-5.4	4.4	0.71	-6	-10	-1.9	i
OCCc1c[nH]c2ccccc12	-5	0	-1.1	1.0	0.75	31	3	1.2	i
CN(C)CCCn1c2c(c(SCC(=O)Nc3cccc4ccccc34)nc1=O)CCCC2	7	-2	3.1	-12	0.67	-43	-3	-2.0	i
COc1cc(NS(=O)(=O)c2ccc(NC(=S)NC(=O)COc3ccccc3OC)cc2)nc(OC)n1	-7	-9	-2.4	2.8	0.67	9	-8	25	i
CCN(C1CCS(=O)(=O)C1)S(=O)(=O)c1ccc(Cl)s1 (stereo not drawn)	9	3	-2.6	3.6	0.68	x	-4	1.1	i
C=CCNC(=S)Nc1sc2c(c1C(=O)OCC)CC(C(C)C)OC2 (stereo not drawn)	x	x	x	7.8	0.66	x	-1	1.0	x
O=C(CCn1c(=O)sc2ccccc21)NC1CCCCC1	1	3	-4.8	x	x	7	-12	7.1	i
COc1ccc(C2=NN(C(=O)CN3CCOCC3)C(c3nc4ccccc4[nH]3)C2)cc1 (stereo not drawn)	9	2	1.4	3.5	0.71	-4	-3	-2.9	x
Cc1cccc(NN=C2c3ccccc3-c3ccccc32)c1	x	x	x	-3.2	x	-26	0	5.1	x
O=C1C2C3CC(C(Br)C3Br)C2C(=O)N1c1ccccn1 (stereo not drawn)	x	x	x	2.0	0.7	-8	-4	-1.4	x
O=C(NCCOC(=O)c1ccc([N+](=O)[O-])cc1)c1cccnc1	10	7	-1.6	0.6	0.64	-22	-2	-0.6	i
CCOc1ccc(CCNC(=O)C2CCCN(S(=O)(=O)c3c(C)n[nH]c3C)C2)cc1OCC (stereo not drawn)	x	x	x	4.4	0.69	-1	24	6.2	x
CCOC(=O)c1cnc2ccc(Br)cc2c1NCCO	2	8	-3.4	0.8	0.7	1	-1	-1.3	i
N#CC(C#N)c1ccnc2ccccc12	2	8	-0.2	x	x	x	x	-3.1	i
CCCCC(CC)CNC(=O)Cn1c(=O)[nH]c2ccsc2c1=O (stereo not drawn)	-6	-1	5.2	1.7	0.62	x	-6	-1.4	i
Cc1ccccc1-c1nnc(SCC(=O)Nc2ccc3c(c2)OCCO3)n1N	8	8	-3.2	4.7	0.68	98*	-47	4.3	x
O=C(Nc1nccs1)c1ccc(-c2ccccc2Cl)o1	x	x	x	-6.5	0.69	-1	-2	0.9	x
Cc1ccc(CNC(=O)CCC2CCCN(Cc3ccc4cccc(F)c4n3)C2)o1 (stereo not drawn)	14	7	5.2	-1.6	0.69	5	x	x	i
O=C(CSc1nc2ccccc2c(=O)n1NC(=O)Cc1ccccc1)NCc1ccco1	x	x	x	3.9	0.68	-16	2	1.6	x
C=CCN=C1N[C@@H](c2ccccc2)C(C(=O)OC)=C(C)N1CCOC	5	2	-0.7	0.3	0.8	2	-3	-3.8	i
COc1ccc(/C=C(/CC(=O)Nc2ccc(C)cc2)c2nc3ccccc3s2)cc1	5	11	1.1	-34	0.68	-13	-6	8.6	i
COCCNC(=O)C(=O)NNS(=O)(=O)c1ccc2ccccc2c1	13	0	-2.0	-0.8	0.68	10	6	-4.7	i
Cc1ccc(S(=O)(=O)NC(=O)C2(C)CCN2C(=O)C2(c3ccc(Cl)cc3)CC2)cc1 (stereo not drawn)	-10	0	-1.1	x	x	x	x	2.3	i
O=C(Nc1nnc(-c2ccccc2)o1)C1CCCN1S(=O)(=O)c1cccs1 (stereo not drawn)	-5	-15	-4.1	4.9	0.62	-6	4	-2.4	i
Cc1ccc(NC(=O)C2CCN(S(=O)(=O)c3ccc4c(c3)NC(=O)C(C)S4)CC2)cc1C (stereo not drawn)	-12	-19	5.6	7.7	0.71	-5	2	1.9	i
Cc1cnc(C(=O)OCC(=O)NC(=O)NC(C)C)cn1	x	x	x	1.2	0.68	-1	3	-7.3	x
CCSc1nnc(NC(=O)[C@H](C)NC(=O)c2ccccc2Cl)s1	-12	-7	-2.1	5.3	0.7	-8	-3	1.4	i
CC(=O)c1ccc(Nc2nc(=O)c3cccnc3s2)cc1	x	x	x	0.0	0.74	-12	-6	3.4	x
CC(C)CC(NC(=O)C1CCC(C)CC1)C(=O)NCCN1CCOCC1 (stereo not drawn)	7	0	-4.8	2.7	0.7	4	-4	-0.4	i
O=[N+]([O-])c1ccc(NNC(=S)Nc2ccccc2)cc1	x	x	x	5.9	0.67	-25	13	-0.8	x
CSc1nc2ccc3nc(NC(=O)c4ccc(C)cc4)sc3c2s1	2	5	3.8	-53	0.73	0	5	13	i
O=C(CCN1C(=O)c2ccc([N+](=O)[O-])cc2C1=O)Nc1cccc(O)c1	x	x	x	2.1	0.65	-5	-1	1.5	x
CCOC(=O)Cn1nc(-c2ccc(Cl)cc2)ccc1=O	x	x	x	-5.9	0.66	0	-3	-0.5	x
O=C(O)C1CCCCC1C(=O)OCCCCOC(=O)C1CCCCC1C(=O)O (stereo not drawn)	x	x	x	3.2	0.67	-3	3	2.7	x
COCCN(C(=O)Cn1c(C(F)(F)F)nc2ccccc21)c1c(N)n(Cc2ccccc2)c(=O)[nH]c1=O	6	9	0.9	1.0	0.69	1	-3	-5.9	i
COc1cccc(NC(=O)COC(=O)c2c3c(nc4ccccc24)CCC(C)C3)c1 (stereo not drawn)	x	x	x	-4.3	0.71	3	14	2.7	x
O=C(Cn1nnc(-c2ccccc2)n1)N/N=C/c1ccco1	18	8	3.3	x	x	-1	7	0.7	i
CC(C)Cc1ccc(CN2CCC(n3nccc3NC(=O)C3CCCC3)CC2)cc1	-27	-32	7.5	2.8	0.7	-17	-1	0.6	i
Cc1ccc(NC(=O)Cn2ncn3c(cc4ccccc43)c2=O)cc1F	-8	6	-1.5	-4.3	0.62	-1	-6	2.0	i

(further entries)
SMILES	rRNA inh HTS	rRNA inh HTS OD600	rRNA inh HTS RFP	UCH37 DUB inh	E coli growth	ALR inh	Beta2AR agonist	HNF4A DNA FP	FGF22 binding
CC1(C(=O)NS(=O)(=O)c2ccc(C#N)cc2)CCN1C(=O)CC1CCCCC1 (stereo not drawn)	12	17	1.9	x	x	x	x	2.1	i
Cc1ccc2oc(=O)ccc2c1	3	7	-1.0	1.1	0.65	x	-1	-2.8	i
COc1ccc(Cn2ccnc2SCC(=O)Nc2ccccc2)cc1	-9	-11	-3.2	4.2	0.69	74	-2	-1.1	i
COc1cc(C(C(=O)NC2CCCCC2)N(C(=O)Cc2c[nH]c3ccccc23)c2ccc(C)cc2)cc(OC)c1OC (stereo not drawn)	x	x	x	3.6	0.73	-2	0	-0.2	i
O=C1CN(C(=O)c2ccc3nc(Cc4cccc(Cl)c4)oc3c2)CCN1	8	14	-0.4	4.1	0.7	-4	6	0.2	i
COc1ccc(C(C)C)cc1S(=O)(=O)N1CC(C)OC(C)C1 (stereo not drawn)	10	11	3.8	1.2	0.73	1	2	-30	i
Cc1ccc(OCC(=O)NNC(=O)C(C)Sc2ncnc3sc(C)c(C)c23)cc1 (stereo not drawn)	x	x	x	1.1	0.68	-15	-6	1.8	x
